Bioassay records: PubChem BioAssay, several laboratories
INS promoter inh: inhibitors of insulin promoter-driven GFP, primary screen, imaging, TRM-6 cells (human fetal islet line), eGFP reporter, cell count; reporter expression induced with tamoxifen; inhibition, % at 2 µM; hit rate 0.9% among 130,000;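 active means inhibition above the mean plus 3 SD, with well images judged a real hit on visual review, cut at about 60% in these data, passing the limit was not always enough; inconclusive means inhibition over the cutoff but images rejected on review; inactive means inhibition not above the cutoff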
RGS16-Gao HTS: modulators of RGS16 binding to Galphao, primary screen, biochemical, human proteins, multiplexed bead flow cytometry; Regulator of G-protein signaling 16 (Homo sapiens) + Guanine nucleotide-binding protein …; hit rate 0.38% among 220,000; bead-based flow cytometry RGS16-Galphao binding, fluorescence; actives lie on both sides; AID 1441, 2008; binding response (% of control), % at 10 µM;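 active means below 25% or above 175%, edge rows of some plates excepted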;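 further: Galphao activated by GDP with aluminum fluoride before binding; 100% = wells without compound and 0% = beads without RGS; some results beyond the cut were filed as inactive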
HSV augment: enhancers of HSV replication in host cells, fold increase, host cell viability. maximum fold increase. AID 1956, 2009. HSV replication augmentation in cells. hit rate 0.005% among 220,000;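 active means peak rise of 1.5-fold or more in the series; inconclusive means self-fluorescent or not available for retest; tested in PC3 cells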;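 further: first round at 10 µM; read as green reporter fluorescence; hits show the peak of a series up to 25 µM; 1 = signal of infected wells without compound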
PKD1 kinase inh: inhibitors of human PKD1 kinase, biochemical, fluorescence polarization; Serine/threonine-protein kinase D1 (Homo sapiens), Q15139; PKD1 kinase fluorescence polarization assay; inhibition, %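 (about 10 µM by stock and volumes)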; hit rate 0.056% among 200,000; AID 797, 2007;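 active means inhibition of 50% or more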;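 further: controls were vehicle for no effect and a reference inhibitor for full effect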
Target sequence (Q15139 whole entry, looked up): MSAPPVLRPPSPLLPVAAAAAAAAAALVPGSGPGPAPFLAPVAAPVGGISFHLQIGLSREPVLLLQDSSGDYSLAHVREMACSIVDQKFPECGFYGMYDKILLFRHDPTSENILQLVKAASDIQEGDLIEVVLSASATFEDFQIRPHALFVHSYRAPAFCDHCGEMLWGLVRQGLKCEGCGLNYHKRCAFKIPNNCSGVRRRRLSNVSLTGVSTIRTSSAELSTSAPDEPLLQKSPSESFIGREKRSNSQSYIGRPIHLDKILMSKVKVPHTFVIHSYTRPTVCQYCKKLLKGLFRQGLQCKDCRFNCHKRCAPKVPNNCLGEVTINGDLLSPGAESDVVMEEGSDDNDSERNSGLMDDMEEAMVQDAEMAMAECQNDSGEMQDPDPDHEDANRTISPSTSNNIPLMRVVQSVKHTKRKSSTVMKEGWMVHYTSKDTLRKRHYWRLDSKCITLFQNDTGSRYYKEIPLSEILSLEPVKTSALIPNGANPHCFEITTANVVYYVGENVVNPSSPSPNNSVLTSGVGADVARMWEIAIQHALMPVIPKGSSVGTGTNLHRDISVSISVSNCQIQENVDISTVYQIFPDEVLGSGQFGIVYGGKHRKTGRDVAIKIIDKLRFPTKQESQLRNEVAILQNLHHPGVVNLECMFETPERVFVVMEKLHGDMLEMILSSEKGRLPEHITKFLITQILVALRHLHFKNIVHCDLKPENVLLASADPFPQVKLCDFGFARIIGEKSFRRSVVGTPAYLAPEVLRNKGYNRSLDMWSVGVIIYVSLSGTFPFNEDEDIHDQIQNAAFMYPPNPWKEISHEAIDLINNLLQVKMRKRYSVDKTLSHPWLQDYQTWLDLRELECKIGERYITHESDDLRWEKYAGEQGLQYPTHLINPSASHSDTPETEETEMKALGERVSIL
GALR2 agonist: GALR2 receptor agonists, primary screen, cell-based | Galanin receptor type 2 (Homo sapiens), O43603 | activation, %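 (tested at 5 µM)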 | GALR2-expressing cells, agonist activation read-out | hit rate 0.48% among 140,000;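 active means above mean plus 3 SD of all compounds, about 5% in these data, not always enough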;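 further: 0% = vehicle buffer wells and 100% = reference agonist at full effect; tested in CHO reporter cells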
INS promoter inh cell count: second read-out of INS promoter inh, no call of its own (marks repeat the call); normalized cell count, %; measured here: cell count, toxicity; reference of the scale not given here;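 cells exposed to compound for 48 h; stained nuclei by imaging scaled within each plate; lower means fewer cells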
HSV augment primary fold: second read-out of HSV augment, no call of its own (marks repeat the call); fold increase; compound at 10 µM; measured here: primary screen fold increase 10 uM; tested in PC3 cells;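 GFP signal in the first replicate; 1 = infected wells without compound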
An asterisk follows results filed as active; i = inactive; u = inconclusive; x = no result given; [ ] = another dose, or the depositor's remark.

SMILES | INS promoter inh | INS promoter inh cell count | RGS16-Gao HTS | HSV augment | HSV augment primary fold | PKD1 kinase inh | GALR2 agonist
O=C(NC(=O)c1ccccc1Cl)Nc1ccc(-c2cnco2)cc1 | x | x | 101 | i | 0.86 | x | x
CC(C)C(=O)NC(=O)COC(=O)/C=C/c1cccs1 | 21 | 110 | 103 | i | 1.1 | -2 | x
CCOC(=O)Cc1nn(C)c(=O)c2ccccc12 | -9 | 40 | 104 | i | 1.2 | -8 | -1.6
CNC(=O)c1ccsc1NC(=O)CN1C(=O)CCC1=O | x | x | 104 | i | 0.92 | x | x
O=C(CSc1ccc(Cl)cc1)Nc1cccc(-c2nnc(-c3ccco3)o2)c1 | -38 | 79 | 102 | i | 0.91 | -2 | 0.2
CCc1c(O)c(/C(C)=N\O)c(=O)n(-c2ccccc2)c1-c1ccccc1 | 6 | 80 | 271*[activator] | i | 1 | -11 | 0.0
O=C(Nc1ccc2c(c1)OCCO2)C1CCN(C(=O)c2ccc([N+](=O)[O-])cc2)CC1 | 25 | 52 | 96 | i | 0.96 | 6 | x
Oc1ccc(-n2cccc2/C=N/n2cnnc2)cc1 | x | x | 105 | i | 1 | -4 | x
O=C(c1ccc2c(c1)OCO2)N1CCC2(CC1)Oc1ccc(Cl)cc1C(=O)C21CC(c2ccccc2)=NO1 (centres undefined) | x | x | 78 | i | 0.6 | x | x
CSc1ccc(S(=O)(=O)Nc2ccc(NC(C)=O)cc2)cc1 | -32 | 115 | 101 | i | 0.88 | -1 | -0.6
Cc1ccc(NC(=O)CCC(=O)N/N=C/c2cccs2)cc1C | 0 | 100 | 118 | i | 0.99 | -11 | -1.6
CCCCNc1cc(=O)oc2ccccc12 | 43 | 181 | 96 | i | 0.87 | -10 | -2.9
O=C(NCc1ccco1)C12CN(Cc3ccccc3)CC1C(c1ccc([N+](=O)[O-])cc1)=NO2 (centres undefined) | 21 | 111 | 97 | i | 0.79 | -1 | -1.5
Cc1ccc(C(=O)N/C(=C/c2cccs2)C(=O)NCc2ccco2)cc1 | 19 | 95 | 109 | i | 1 | 5 | -0.9
CCOC(=O)c1ccccc1NC(=O)c1ccccc1NS(C)(=O)=O | -194 | 73 | 101 | i | 1 | -1 | -1.7
CC(OC(=O)c1ccc(NS(=O)(=O)c2ccc3[nH]c(=O)[nH]c3c2)cc1)C(=O)Nc1ccc(Cl)cc1 (centres undefined) | x | x | 101 | i | 0.89 | 7 | x
CCOc1ccc(N2CC(C(=O)Nc3ccc(F)cc3F)CC2=O)cc1 (centres undefined) | -20 | 89 | 101 | i | 0.97 | -6 | -0.1
Cc1cc(C(=O)CSc2nnc(-c3ccco3)o2)c(C)n1-c1ccc2c(c1)OCCO2 | -27 | 138 | 94 | i | 0.95 | -16 | -2.2
COc1cc(OC)c(OC)cc1/C=N/Nc1ncnc2c1[nH]c1ccccc12 | 42 | 105 | 98 | i | 0.69 | 2 | 1.7
Cc1cc(C(=O)NCCCOC(C)C)c2ccccc2n1 | 14 | 84 | 101 | i | 1.1 | -5 | -0.1
COc1ccc(C(=O)C2CCCN(Cc3ccc4nonc4c3)C2)c(OC)c1 (centres undefined) | x | x | 95 | i | 1.1 | -1 | x
CCOc1ccc(C(=O)OC2CCN(C)CC2)cc1 | 22 | 106 | 117 | i | 1.1 | 10 | -1.4
O=C(OC(C(=O)NCc1cccs1)c1ccccc1F)c1ccco1 (centres undefined) | 45 | 88 | 95 | i | 0.77 | -16 | 0.6
O=C(c1ccc2nc[nH]c2c1)N1CCc2ccccc2C1 | x | x | 101 | i | 0.91 | -7 | x
CCCCN=Cc1c(C)[nH]n(-c2ccccc2)c1=S | -312 | 104 | 105 | i | 0.92 | 4 | x
Cc1nc(N2CCOCC2)sc1C(=O)NN | x | x | 99 | i | 0.81 | -12 | x
CCN1C(=O)c2ccccc2S(=O)c2ccc(C(=O)N3CCN(C(=O)c4ccco4)CC3)cc21 (centres undefined) | -40 | 104 | 100 | i | 0.66 | 4 | -1.0
Cc1ccc(N2CC(C)Cn3c2nc2c3c(=O)n(CC(=O)OCc3ccccc3)c(=O)n2C)cc1C (centres undefined) | x | x | 99 | i | 0.85 | -5 | 0.0
COC(=O)c1ccc(NC(=O)Cc2ccccc2)cc1 | -10 | 82 | 100 | i | 0.86 | -15 | 0.3
COc1ccc(NC(=O)CCN2CCCCCC2)cc1 | -41 | 104 | 103 | x | x | 4 | -4.8
COc1ccc(Cn2nnnc2C(c2ccccc2Cl)N2CCC(C(N)=O)CC2)cc1 (centres undefined) | 40 | 113 | 102 | i | 1.1 | -5 | -1.9
CCCCNC(=O)CN1C(=O)NC2NC(=O)NC21 (centres undefined) | x | x | 87 | i | 0.89 | -11 | -2.7
Cn1ncc(C#N)c1NC(=O)C1CC(c2ccc(Cl)c(Cl)c2)=NO1 (centres undefined) | -143 | 24 | 97 | i | 0.95 | 2 | -0.9
CN=c1scc(-c2ccccc2F)n1/N=C/c1ccc[nH]1 | x | x | 107 | u | x | 9 | x
CN1CCN(C(=O)/C(=C\c2cccs2)NC(=O)c2cccs2)CC1 | 53 | 126 | 112 | i | 1 | 7 | -2.2
COc1ccc(Cl)cc1NC(=O)CNc1ccccc1CN(C)C1CCCCC1 | x | x | 99 | i | 0.95 | -3 | x
C=CCN(C(=O)c1cccc(N2C(=O)C3CC=CC(C)C3C2=O)c1)c1ccccc1 (centres undefined) | -83 | 171 | 102 | i | 1 | -4 | x
O=C(Cn1nnc2ccccc2c1=O)NCCc1ccc(Cl)cc1Cl | x | x | 98 | i | 0.99 | 0 | 0.1
O=C1C(Nc2ccccc2)=C(N2CCCCC2)C(=O)c2ccccc21 | -14 | 76 | 93 | i | 0.89 | -4 | -2.4
O=C(CSCc1c(F)cccc1Cl)Nc1cccnc1 | x | x | 102 | i | 0.96 | -9 | x
O=C(CN(CCO)c1ccccc1)Nc1cccc(S(=O)(=O)N2CCCC2)c1 | x | x | 94 | i | 1.1 | -3 | x
OC(COc1ccc2ccccc2c1)CN1CCCC1 (centres undefined) | x | x | 107 | i | 0.93 | -4 | -1.4
COCCN1C(=O)c2oc3ccccc3c(=O)c2C1c1ccc(OC)c(OC)c1 (centres undefined) | -56 | 56 | 96 | i | 0.9 | 9 | -2.5
O=C(COC(=O)/C=C/c1ccc(Br)o1)NCCCN1CCCC1=O | -9 | 64 | 118 | i | 0.87 | -1 | x
O=S(=O)(Cc1noc(-c2ccc(Cl)cc2)n1)Cc1ccco1 | x | x | 106 | i | 1.2 | x | x
COc1cc2c(=O)n(CC3CCCO3)c(=O)n(CC(=O)Nc3cccc(Cl)c3)c2cc1OC (centres undefined) | 41 | 58 | 86 | i | 0.99 | -3 | 0.0
CCc1ccccc1NC(=S)N(Cc1cccc(C)c1)c1cccnc1 | 40 | 55 | 105 | i | 0.92 | -2 | x
COC(=O)c1sc(S(=O)(=O)NCCC(=O)O)c(C(=O)OC)c1C | -43 | 119 | 102 | i | 0.94 | -1 | x
C/C(=N\NC(=O)c1cccc(S(=O)(=O)N2CCCC2)c1)c1ccco1 | x | x | 87 | i | 1 | 2 | x
Cc1nc(N)sc1Cc1ccc2c(c1)OCO2 | x | x | 109 | i | 1 | -5 | -1.1
CC(C)NC(=S)NC(=O)c1ccc(Cl)cc1Cl | x | x | 42 | i | 1.1 | -4 | -1.1
S=c1[nH]nc(-c2ccncc2)n1/N=C/c1cn(-c2ccccc2)nc1-c1ccc(Cl)cc1 | x | x | 92 | i | 0.95 | x | x
C=CCCC(=O)Nc1nc(C)c(-c2csc(Nc3ccc(Cl)cc3Cl)n2)s1 | 47 | 104 | 100 | i | 0.8 | 2 | 1.0
Cc1ccsc1/C=C1\SC(N)=NC1=O | x | x | 85 | x | x | 5 | -1.0
O=C(/C=C/c1ccccc1)N/C(=C/c1ccccc1)C(=O)N1CCCCC1 | -13 | 89 | 99 | i | 1 | 8 | -1.2
O=[N+]([O-])c1c(Nc2ccccc2)ccc2nonc12 | 58 | 135 | 106 | i | 0.87 | -13 | 0.5
CN1C(=O)CSc2ccc(NC(=O)N3CCN(c4ccccc4)CC3)cc21 | -40 | 132 | 95 | i | 0.94 | -7 | x
CCn1cc(C(=O)OCC(=O)Nc2ccc(C(C)C)cc2)c(=O)c2ccc(C)nc21 | -17 | 143 | 103 | i | 0.94 | -2 | x
Oc1ccc(/C=N/NC2=NCCCCC2)cc1 | 16 | 72 | 88 | i | 0.9 | 1 | -1.9
O=C1COc2ccc(-c3n[nH]c(=O)c4ccccc34)cc2N1 | 7 | 112 | 101 | i | 1 | 3 | x

Following part:
SMILES | INS promoter inh | INS promoter inh cell count | RGS16-Gao HTS | HSV augment | HSV augment primary fold | PKD1 kinase inh | GALR2 agonist
Cc1cc(NC(=O)C(C)(C)C)no1 | 27 | 228 | 105 | i | 0.82 | -4 | -0.3
O=C(CO/N=C/c1c(Cl)cccc1Cl)NNC(=O)c1ccc(Cl)cc1 | x | x | 104 | i | 0.93 | x | x
O=C(c1ccc(Br)o1)N1CCN(c2ccccc2F)CC1 | 33 | 157 | 107 | i | 0.91 | -2 | -1.4
COc1ccc(Cn2c(-c3ccccc3)nc3c(c(=O)c4ccccc4n3C)c2=O)cc1 | x | x | 105 | i | 0.81 | -8 | 2.3
CCOC(=O)Cc1csc(Nc2c(C)n(C)n(-c3ccccc3)c2=O)n1 | x | x | 96 | i | 0.92 | -3 | -1.2
CCCC(=O)N1CCN(c2ccc(NC(=O)c3ccc(Br)o3)cc2)CC1 | -3 | 117 | 94 | i | 0.87 | 4 | -5.6
CCN1/C(=C/c2ccc3cc(C)cc(C)c3[n+]2CC)Sc2cc(C)ccc21 | -413 | 14 | 108 | x | x | -24 | x
O=C(/C=C/c1cccc([N+](=O)[O-])c1)Nc1ccc(Cl)cn1 | x | x | 104 | i | 0.77 | 0 | x
O=C(C1CCCO1)N1CCN(C(=S)Nc2ccc(F)c(Cl)c2)CC1 (centres undefined) | x | x | 101 | i | 1 | -6 | x
CCOC(=O)N1CCN(Cc2ccc(F)cc2F)CC1 | 57 | 150 | 104 | i | 0.89 | -1 | -1.6
COCc1nnc(NC(=O)c2ccc3c(c2)OCO3)s1 | -72 | 49 | 100 | i | 0.89 | -8 | x
Cc1ccc(-n2c(SCC(N)=O)nnc2-c2cnccn2)cc1 | x | x | 98 | i | 1.3 | x | x
CCN1C(=O)C(CC(=O)NC)N(NC(=O)c2ccccc2)C1=S (centres undefined) | -3 | 130 | 57 | i | 1.1 | 1 | -0.9
CCOC(=O)N1CCN(c2nc3c(c(=O)[nH]c(=O)n3C)n2Cc2ccccc2Cl)CC1 | x | x | 107 | i | 0.71 | -13 | -1.1
CNC(=O)CCc1ccc(OC)cc1 | x | x | 101 | i | 0.99 | x | x
O=C1c2ccccc2C(=O)N1CCCC(=O)N1CCc2ccccc21 | 21 | 63 | 89 | x | x | -6 | -0.9

Compounds listed so far with an aryl methoxy group:
SMILES | INS promoter inh | INS promoter inh cell count | RGS16-Gao HTS | HSV augment | HSV augment primary fold | PKD1 kinase inh | GALR2 agonist
COc1cc(OC)c(OC)cc1/C=N/Nc1ncnc2c1[nH]c1ccccc12 | 42 | 105 | 98 | i | 0.69 | 2 | 1.7
COc1ccc(C(=O)C2CCCN(Cc3ccc4nonc4c3)C2)c(OC)c1 (centres undefined) | x | x | 95 | i | 1.1 | -1 | x
COc1ccc(NC(=O)CCN2CCCCCC2)cc1 | -41 | 104 | 103 | x | x | 4 | -4.8
COc1ccc(Cn2nnnc2C(c2ccccc2Cl)N2CCC(C(N)=O)CC2)cc1 (centres undefined) | 40 | 113 | 102 | i | 1.1 | -5 | -1.9
COc1ccc(Cl)cc1NC(=O)CNc1ccccc1CN(C)C1CCCCC1 | x | x | 99 | i | 0.95 | -3 | x
COCCN1C(=O)c2oc3ccccc3c(=O)c2C1c1ccc(OC)c(OC)c1 (centres undefined) | -56 | 56 | 96 | i | 0.9 | 9 | -2.5
COc1cc2c(=O)n(CC3CCCO3)c(=O)n(CC(=O)Nc3cccc(Cl)c3)c2cc1OC (centres undefined) | 41 | 58 | 86 | i | 0.99 | -3 | 0.0
COc1ccc(Cn2c(-c3ccccc3)nc3c(c(=O)c4ccccc4n3C)c2=O)cc1 | x | x | 105 | i | 0.81 | -8 | 2.3
CNC(=O)CCc1ccc(OC)cc1 | x | x | 101 | i | 0.99 | x | x
